# ALR inh – inhibitors of human ALR sulfhydryl oxidase, primary screen, biochemical, H2O2 detection, HRP-luminol luminescence, single point; AID 485317, 2010; 290,000 tested, 3.8% active; inhibition, % (no concentration beside the values); purified ALR, DTT oxidation;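 active means mean and each replicate at 75% or more; inconclusive means only one of the two met; inactive means neither met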;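 further: stock transfer was 7.5 nL into about 7.5 µL; 0% = neutral wells and 100% = wells with inactivated enzyme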
# Target sequence (P55789 whole entry, looked up): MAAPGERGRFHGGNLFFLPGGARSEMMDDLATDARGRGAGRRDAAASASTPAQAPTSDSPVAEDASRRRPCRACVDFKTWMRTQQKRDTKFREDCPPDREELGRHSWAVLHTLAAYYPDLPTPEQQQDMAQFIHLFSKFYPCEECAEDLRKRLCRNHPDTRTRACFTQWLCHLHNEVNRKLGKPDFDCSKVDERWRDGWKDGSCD
# MLL AF4-AF9 inh – inhibitors of AF4 peptide binding to AF9, primary screen, biochemical, AlphaScreen, biotin-AF4 peptide, FLAG-AF9, single point; inhibition, % at 10 µM; 350,000 tested, 0.47% active; Protein AF-9 (Homo sapiens), P42568;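 active means every replicate reaching a set inhibition limit, whatever the replicate mean, cut at about 25% in these data; inconclusive means mean inhibition reaches that limit but some replicates miss it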;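 further: 0% = plate neutral control median and 100% = total signal loss; the record names both 10 and 1 µM as test concentration; the first replicate is given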
# Target sequence (P42568 whole entry, looked up): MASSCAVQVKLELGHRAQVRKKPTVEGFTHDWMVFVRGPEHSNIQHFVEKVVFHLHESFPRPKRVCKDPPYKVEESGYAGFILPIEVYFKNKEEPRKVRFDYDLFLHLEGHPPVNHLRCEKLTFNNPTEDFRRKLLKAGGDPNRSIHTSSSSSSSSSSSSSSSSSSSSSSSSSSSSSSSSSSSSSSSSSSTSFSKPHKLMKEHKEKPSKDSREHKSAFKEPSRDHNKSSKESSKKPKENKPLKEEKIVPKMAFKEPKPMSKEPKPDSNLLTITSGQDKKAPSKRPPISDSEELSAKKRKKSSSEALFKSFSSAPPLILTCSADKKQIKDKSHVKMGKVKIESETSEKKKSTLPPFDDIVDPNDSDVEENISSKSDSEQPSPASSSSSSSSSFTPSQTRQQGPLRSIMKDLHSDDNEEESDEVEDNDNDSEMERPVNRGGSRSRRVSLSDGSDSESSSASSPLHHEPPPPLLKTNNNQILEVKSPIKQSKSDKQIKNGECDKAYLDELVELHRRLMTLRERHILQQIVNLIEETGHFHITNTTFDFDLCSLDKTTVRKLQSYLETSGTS
# Ecoli rRNA inh – reduced GFP signal of wild-type E. coli, primary screen, bacterial rRNA inhibitor project, GFP/RFP fluorescence, OD600, single point | GFP signal change (wild-type ribosome), % (test concentration not listed) | 350,000 tested, 1.6% active | E. coli WT GFP vs humanized-ribosome RFP mutants, 24 h; active compounds read low; DMSO median 0, no signal -100 | AID 720706, 2013;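 active means significant combined selectivity score with lowered wild-type GFP, culture density cut under 30%, mutant RFP and density less affected; inactive means any of these conditions unmet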; further: one replicate is shown; some compounds called inactive have numbers as strong as hits
# Calb FLC – C. albicans growth inhibition with fluconazole, primary screen, CaCi-2 strain, Alamar Blue fluorescence; C. albicans CaCi-2 (fluconazole-resistant clinical isolate) + fluconazole, 48 h; growth inhibition, % (test concentration not listed); 300,000 tested, 0.57% active; AID 1979, 2009;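 active means most replicates above 75%; inconclusive means exactly half above 75%; inactive means most below 75%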;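 further: all wells also contain fluconazole at 8 µg/ml as a sub-toxic cotreatment; 0% = median of DMSO wells and 100% = median of geldanamycin control wells; wells of about 8 µL received 7.5 nL stock; the first replicate is given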
# FGF22 binding – binders of human FGF22 protein, primary screen, FGF22 synaptogenesis inhibitor project, biophysical, thermal shift, single point; recombinant FGF22 thermal shift, SYPRO orange fluorescence; percent of sucrose octasulfate shift, DMSO zero; calls only at 9.99 µM; 340,000 tested, 1.5% active; AID 651658, 2012;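 active means melting point raised past a set limit in the mean and every replicate; inconclusive means no clear call; three in four hits are not shown here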
# Target sequence (Q9HCT0 whole entry, looked up): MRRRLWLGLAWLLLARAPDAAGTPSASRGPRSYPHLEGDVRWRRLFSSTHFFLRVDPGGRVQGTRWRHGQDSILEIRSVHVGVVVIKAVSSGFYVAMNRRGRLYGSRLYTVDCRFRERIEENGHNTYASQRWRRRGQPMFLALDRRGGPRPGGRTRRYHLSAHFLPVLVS
# RanGTP-Impb inh – inhibitors of RanGTP-importin-beta interaction, primary screen, biochemical, FRET, CFP-Ran, YFP-importin-beta, homogeneous; AID 2216, 2009; inhibition, % (test concentration not listed); cell-free CFP-Ran/YFP-importin-beta FRET ratio; 300,000 tested, 1.1% active; Ran GTPase (GTP-bound) - importin-beta complex;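 active means most replicates above 15%; inconclusive means exactly half above 15%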;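 further: 0% = DMSO wells and 100% = Ran loaded with GDP instead of GTP; wells of about 40 µL received 100 nL stock; the first replicate is given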
# T cruzi inh – inhibitors of intracellular T. cruzi growth, primary screen, luminescence, NIH3T3 host cells; T. cruzi beta-gal in NIH3T3, 90 h; inhibition, % (test concentration not listed); 300,000 tested, 1.4% active; AID 1885, 2009;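 active means mean inhibition across valid replicates above about 55%, limit read from the data; inconclusive means mean below that limit but half or more replicates reach it; inactive means mean below it, under half of replicates reach it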;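 further: signal also drops with host cell toxicity which is not excluded here; 0% = plate median of DMSO wells and 100% = zero luminescence signal; higher percent means less beta-gal luminescence so fewer parasites; stock transfer was 50 nL into about 50 µL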
# Beta apoptosis – inhibitors of cytokine-induced beta cell apoptosis, primary screen, luminescence | 300,000 tested, 0.8% active | INS-1E cytokine-induced death, ATP luminescence, 48 h; percent of positive-control rescue, neutral wells zero | protection from apoptosis, % (concentration not given with the values);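 active means all replicates at 75% or more, or half of them and the mean; inconclusive means half reach 75% but not the mean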;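 further: 0% = cytokine-treated negative control wells and 100% = positive control rescue; higher means more ATP so stronger rescue from cytokine killing; wells of about 40 µL received 100 nL stock; the first replicate is given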
# Ecoli rRNA inh OD600 – further read-out of Ecoli rRNA inh, marked with its call; OD600 change, %; measured here: OD600 growth;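 optical density of the mix in the first replicate; 0 = DMSO median and -100 = no signal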
# Ecoli rRNA inh RFP – recorded beside Ecoli rRNA inh, whose call it bears; RFP signal change, %; measured here: RFP humanized mutant strains;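 first replicate; 0 = DMSO median and -100 = no signal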
# * = called active by the depositor; i = inactive; ? = inconclusive; · = no result given; & = joins results of further samples. This is a subset. The share of hits here may be higher or lower than overall.
SMILES,ALR inh,MLL AF4-AF9 inh,Ecoli rRNA inh,Ecoli rRNA inh OD600,Ecoli rRNA inh RFP,Calb FLC,FGF22 binding,RanGTP-Impb inh,T cruzi inh,Beta apoptosis
CC(CCc1ccccc1)NC(=O)C(=O)NCCc1ccccc1 (stereo not drawn),-2,1.7,13,18,2.0,7,i,8.4,21,3
COc1ccccc1N=CC=C1OC(C)(C)C(C)(C)O1,-7,1.6,20,8,1.8,10,i,-2.2,59*,4
COc1cccc(C(=O)Nc2cc(NC(=O)c3cccs3)ccc2C)c1,-3,1.8,-10,-6,-0.2,-5,i,-0.1,-8,0
COC(=O)Nc1nnc(COc2cccc(C)c2)s1,4,-1.6,-18,-18,0.3,10,i,-0.8,-20,3
CCc1ccc(NC(=O)CCS(=O)(=O)c2ccc(Cl)cc2)cc1,-3,0.5,5,1,-2.3,0,i,4.9,?,·
CC1=NOC(=O)/C1=C\c1ccc(-c2cc(Cl)ccc2Cl)o1,-1,·,·,·,·,-9,·,2.5,-36,101*
CC(c1ccccc1)n1c(CO)nc2ccccc21 (stereo not drawn),-4,-1.2,-4,-3,5.6,-3,i,-0.1,5,-4
Cc1cc(NC(=O)c2cccnc2)ccc1NC(=O)c1cc2ccccc2o1,-2,-0.7,3,8,-0.8,2,i,?,-2,2
COC(=O)CSc1nc2c(c(-c3ccco3)c1C#N)CCCC2,2,·,·,·,·,11,·,-3.2,4,1
Cc1ccccc1-n1c(O)c(/C=N/N2CCCCC2c2cccnc2)c(=O)[nH]c1=O (stereo not drawn),8,1.2,17,6,1.5,-11,i,-1.9,0,2
COCCN(C(=O)CCc1nnc(Cc2c[nH]c3ccccc23)o1)C(C)C,·,-4.2,3,6,-1.4,-2,i,1.0,-3,·
O=C(c1ccncc1)N1CCN(C(=O)c2ccncc2)CC1,-4,-2.0,17,12,-0.8,-2,i,2.4,-16,0
Cc1ccc(NCc2ccncc2)c(Br)c1,43,2.9,-14,-14,-3.0,5,i,7.9,-9,-3
COCc1cc(=O)n2[nH]c(C(C)(C)C)cc2n1,1,-4.5,7,-2,1.7,-15,i,2.9,1,2
Cn1cccc1C(=O)OCC(=O)Nc1ccc2c(c1)OCO2,-1,-7.7,3,15,-1.6,-15,i,0.9,3,-2
COC(=O)NCC1(C)CC(NC(=O)OC)CC(C)(C)C1 (stereo not drawn),-22,·,·,·,·,-14,·,-0.2,-4,-7
COc1cc(OC)c2c(c1)C(=O)OC2OC (stereo not drawn),26,-2.4,6,6,0.2,-3,i,0.4,-14,3
CC(c1ccco1)N(C(=O)c1ccccc1NS(=O)(=O)c1ccc(Cl)cc1)c1ccccn1 (stereo not drawn),-4,2.7,-27,-24,-2.5,16,i,-0.1,-14,2
C=CCOc1c(Br)cc(C2NC(=O)NC(C)=C2C(C)=O)cc1OCC (stereo not drawn),-5,·,·,·,·,0,·,?,14,-6
C=CCOC(=O)C1=C[C@@H](c2coc3ccccc3c2=O)C[C@@H](OCc2ccc(CO)cc2)O1,·,0.7,-12,-16,-10,6,i,-1.1,19,-2
CC(C)CN(C(=O)c1ccco1)C1CCS(=O)(=O)C1 (stereo not drawn),-8,-2.0,2,0,-2.0,-4,i,-0.6,-7,-2
Cc1ccc(S(=O)(=O)NCCC(=O)NC(C)CCc2ccccc2)cc1 (stereo not drawn),·,1.0,1,5,3.6,-2,i,-1.6,-2,5
O=C(Nc1ccc(Cl)cc1Cl)c1csc(-c2cccnc2)n1,-4,0.3,4,11,1.3,-9,i,-17,30,-14
CC(C)(C)c1ccc(C(=O)NC2CCN(Cc3ccccc3)CC2)cc1,-4,-1.7,2,-10,-1.6,-21,i,1.2,53,-4
O=C(NNC(=O)C1CC1)c1cc(Br)c(Br)s1,-4,-9.7,-5,6,-0.2,·,i,·,·,3

# 11 of these compounds, set out differently.
# Every second line gives: ALR inh | MLL AF4-AF9 inh | Ecoli rRNA inh | Ecoli rRNA inh OD600 | Ecoli rRNA inh RFP | Calb FLC | FGF22 binding | RanGTP-Impb inh | T cruzi inh | Beta apoptosis
- CC(CCc1ccccc1)NC(=O)C(=O)NCCc1ccccc1 (stereo not drawn)
→ -2 | 1.7 | 13 | 18 | 2.0 | 7 | i | 8.4 | 21 | 3
- COc1ccccc1N=CC=C1OC(C)(C)C(C)(C)O1
→ -7 | 1.6 | 20 | 8 | 1.8 | 10 | i | -2.2 | 59* | 4
- COc1cccc(C(=O)Nc2cc(NC(=O)c3cccs3)ccc2C)c1
→ -3 | 1.8 | -10 | -6 | -0.2 | -5 | i | -0.1 | -8 | 0
- COC(=O)Nc1nnc(COc2cccc(C)c2)s1
→ 4 | -1.6 | -18 | -18 | 0.3 | 10 | i | -0.8 | -20 | 3
- CCc1ccc(NC(=O)CCS(=O)(=O)c2ccc(Cl)cc2)cc1
→ -3 | 0.5 | 5 | 1 | -2.3 | 0 | i | 4.9 | ? | ·
- CC1=NOC(=O)/C1=C\c1ccc(-c2cc(Cl)ccc2Cl)o1
→ -1 | · | · | · | · | -9 | · | 2.5 | -36 | 101*
- CC(c1ccccc1)n1c(CO)nc2ccccc21 (stereo not drawn)
→ -4 | -1.2 | -4 | -3 | 5.6 | -3 | i | -0.1 | 5 | -4
- Cc1cc(NC(=O)c2cccnc2)ccc1NC(=O)c1cc2ccccc2o1
→ -2 | -0.7 | 3 | 8 | -0.8 | 2 | i | ? | -2 | 2
- COC(=O)CSc1nc2c(c(-c3ccco3)c1C#N)CCCC2
→ 2 | · | · | · | · | 11 | · | -3.2 | 4 | 1
- Cc1ccccc1-n1c(O)c(/C=N/N2CCCCC2c2cccnc2)c(=O)[nH]c1=O (stereo not drawn)
→ 8 | 1.2 | 17 | 6 | 1.5 | -11 | i | -1.9 | 0 | 2
- COCCN(C(=O)CCc1nnc(Cc2c[nH]c3ccccc23)o1)C(C)C
→ · | -4.2 | 3 | 6 | -1.4 | -2 | i | 1.0 | -3 | ·

# Next part:
SMILES,ALR inh,MLL AF4-AF9 inh,Ecoli rRNA inh,Ecoli rRNA inh OD600,Ecoli rRNA inh RFP,Calb FLC,FGF22 binding,RanGTP-Impb inh,T cruzi inh,Beta apoptosis
CCOC(=O)CSc1ncc(-c2cccc(Cl)c2)cn1,-3,·,·,·,·,3,·,?,16,-3
Cc1nn(-c2ccccc2)c(NC(=O)c2ccccc2)c1Br,·,0.7,-4,-11,-8.2,4,i,-1.8,-8,-4
O=C(COC(=O)c1ccc(F)c(S(=O)(=O)N2CCOCC2)c1)NCCc1ccccc1,21,-1.5,21,10,8.9,-1,·,3.7,0,-4
CCO[C@@H]1OC(C(=O)NCc2nc3ccccc3[nH]2)=C[C@H](C2CC2)[C@H]1CCCO,-6,-2.8&-1.6,-2,5,-8.7,-3,i,-0.7,2,-1
Cc1ccc(/C=N/Nc2nc(C)cc(C)n2)cc1,-11,-0.7,9,6,2.0,10,i,1.4,3,-10
O=C(COc1ccccc1Cl)Nc1cccc(S(=O)(=O)N2CCCC2)c1,-4,0.7,-34*,-1.8*,-3.0*,·,i,·,·,1
CCS(=O)(=O)N1CCCC(C(=O)NC2CCCCC2)C1 (stereo not drawn),-5,·,·,·,·,4,·,5.0,-9,-2
Cc1c(NC2=CC(=O)CC(C)(C)C2)ccc([N+](=O)[O-])c1C,-2,1.2,10,8,5.5,13,i,·,4,5
Cc1ccc(Nc2nc(Cl)c(C=O)s2)cc1Cl,·,-0.4,0,6,5.1,40,i,1.6,1,17
Cc1cc(C(=O)O)ccc1-c1ccc(CO)o1,-15,-1.4,4,-1,0.9,16,i,1.7,-10,-5
Cc1cccc(C)c1OCc1cc(C(=O)N2CCN3CCCC3C2)no1 (stereo not drawn),-9,0.2,-1,6,1.8,-6,i,1.7,14,-1
O=C(O)c1cncc(C#CCC2CCCCC2)c1,·,-0.9,3,3,-0.5,6,i,0.0,4,-3
Cc1nc2ccc(NC(=O)c3sccc3C)cc2s1,-5,·,·,·,·,-4,·,-3.8,5,-5
CCn1c(-c2csc3c2CCCC3)n[nH]c1=S,91*,·,·,·,·,-4,·,-3.9,-18,-3
O=S(=O)(NCc1ccccc1)c1ccc(S(=O)(=O)N(Cc2ccccn2)Cc2ccco2)cc1,2,·,·,·,·,-3,·,0.3,-3,-3
CCCCN1C(=O)/C(=C2/C=CC=CN2C)SC1=S,99*,·,·,·,·,-1,·,-4.8,-5,·
COc1cc(OC)cc(-c2cc3nc(C)c(CCC(=O)O)c(C)n3n2)c1,28,-4.5,-9,-13,1.0,·,i,·,·,·
Cc1ccc(/C=C/S(=O)(=O)NCC(=O)OCC(=O)Nc2ccc(C(N)=O)cc2)cc1,-6,-18,2,3,-0.3,·,i,2.2,-2,-2
Cc1nc(Cl)sc1C(=O)Nc1ccc(Cl)cc1,-16,0.1,2,13,-0.8,-17,i,-4.3,3,5
COc1cc(Cl)c(C)cc1NC(=O)CCCn1c(=O)oc2ccccc21,·,-0.4,-24,-37,-8.0,-1,i,1.5,6,-10
CCO/C(C)=N/n1c2nc3ccccc3nc2c2c(=O)n(Cc3ccccc3Cl)c(C)nc21,-10,·,·,·,·,3,·,2.2,2,-7
CC1CCCN(C(=O)/C(=C/c2ccco2)NC(=O)c2ccccc2)C1 (stereo not drawn),·,0.0,-2,2,-0.3,0,i,-4.1,-5,1
CC(C)Cc1ccc(C(C)C(=O)N2CCOCC2)cc1 (stereo not drawn),-11,·,2,8,2.8,10,·,-3.7,1,-2
CC(C(=O)NCC1CCCO1)n1cccc1C(=O)c1ccccc1 (stereo not drawn),-7,·,·,·,·,4,·,-1.1,12,-3
COc1ccc(S(=O)(=O)N2CC(C)N(S(=O)(=O)c3ccc(OC)cc3)CC2C)cc1 (stereo not drawn),-14,·,·,·,·,-26,·,-7.5,1,4
COC(=O)c1ccc(NC(=O)CCS(=O)(=O)c2ccc(Br)cc2)cc1,-5,-1.7,16,15,0.8,0,i,1.5,10,0
O=C(NC1CCCCCCC1)c1cc(-c2ccccn2)nc2ccccc12,30,0.3,·,·,·,2,i,3.6,33,0
Cc1ccc(-c2nn(CC(=O)N(C)C)c(=O)c3ccccc23)cc1S(=O)(=O)N(C)C,-3,·,·,·,·,9,·,3.0,12,1
COC(=O)Cc1[nH]nc2c1C1(CCSCC1)C(C#N)=C(N)O2,33,-3.3,6,7,-5.2,-11,i,-0.2,-4,2

# Screening data (PubChem BioAssay)
